Source: PubChem BioAssay
D2 ag – agonists of human D2 dopamine receptor (beta-arrestin); activation, % (concentration not given with the values); AID 624465; P14416; actives 0.084% (n = 360,000); DiscoveRx PathHunter D2 beta-arrestin, luminescence, 90 min; 100% = 57 uM dopamine signal; in the data active = activation above about 40%; inconclusive = about 15% to 40%; inactive = below about 15%; further: compound concentration not given in the record; the text of the record calls up to 30% inactive
Target sequence (P14416 whole entry, looked up): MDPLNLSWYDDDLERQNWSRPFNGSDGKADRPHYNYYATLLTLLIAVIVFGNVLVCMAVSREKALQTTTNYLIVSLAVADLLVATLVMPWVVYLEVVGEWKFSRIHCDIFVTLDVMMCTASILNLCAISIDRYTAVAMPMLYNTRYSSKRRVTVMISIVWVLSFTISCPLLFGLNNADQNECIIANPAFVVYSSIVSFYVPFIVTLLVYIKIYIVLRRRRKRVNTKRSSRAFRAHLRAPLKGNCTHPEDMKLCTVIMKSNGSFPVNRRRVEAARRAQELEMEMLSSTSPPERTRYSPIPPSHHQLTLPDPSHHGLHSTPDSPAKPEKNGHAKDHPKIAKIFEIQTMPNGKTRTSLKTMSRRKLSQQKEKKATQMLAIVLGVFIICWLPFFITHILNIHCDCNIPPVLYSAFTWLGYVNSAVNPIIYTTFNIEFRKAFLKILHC
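DiscoveRx PathHunter D2 beta-arrestin cells (2,100/well) attached overnight, then compound-stimulated 90 min at 37 C in HBSS/10 mM HEPES/0.1% Tween-20 buffer; beta-galactosidase complementation read by luminescence after 1 h at ambient temperature. Dopamine 57 uM final (EC100) as control.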
D2 potentiator – positive allosteric modulators of human D2 dopamine receptor; DiscoveRx D2 beta-arrestin cells, luminescence, 90 min; 100% = 57 uM dopamine signal; potentiation, % (test concentration not listed); actives 0.23% (n = 360,000); P14416; AID 624464; active = potentiation of 50% or more; inconclusive = 30% to 50%; inactive = 30% or less;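 further: compound concentration not given in the record; tested on top of an EC20 dose of dopamine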
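PathHunter D2 cells, attached overnight at 37 deg C, received compound in DMSO plus dopamine at EC20 (50 nM final) for 90 min at 37 deg C. Beta-arrestin recruitment was read as luminescence after 1 h with detection reagent at ambient temperature.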
CtBP-E1A blk – blocks the CtBP interaction with E1A; activity change, % (no concentration beside the values); AlphaScreen GST-E1A/His-CtBP binding, 1536-well; stronger effect = lower value; control for the full effect not named in the record; actives 0.49% (n = 340,000); in the data active means activity change below about -65%; inconclusive means about -30% to -65%; inactive means above about -30%; further: on the % scale 0 is the no-effect control and ±100 the full control effect; compound concentration not given in the record
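In 5 uL wells, 23 nL compound meets equimolar GST-E1A and His-CtBP (5X stock 125 nM each) for 2 h, 37 °C. Beads (5X, 50 ug/mL) then 1 h, 37 °C, dark.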
Six1-Eya2 blk – blocks human Six1 binding to Eya2; Q15475+O00167; AlphaScreen GST-Six1/His-Eya2 binding, biochemical; stronger effect = lower value; control for the full effect not named in the record; activity change, % (no concentration beside the values); actives 0.56% (n = 360,000); AID 651725; in the data active = activity change below about -65%; inconclusive = about -30% to -65%; inactive = above about -30%; further: on the % scale 0 is the no-effect control and ±100 the full control effect; compound concentration not given in the record
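Six1/Eya2 binding was read as AlphaScreen signal after compounds were pinned into GST-Six1 plus His-tagged Eya2 (5X stock 250/500 nM) in pH 8.0 Tris/NaCl/TCEP buffer, beads added, then incubated 1 h, 37 C, dark.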
TRPML1 ag – activates the human TRPML1 channel; TRPML1-expressing cells, Ca2+ dye fluorescence, FDSS; host cell line not named in the record; reference of the full effect not given here; activation, % (concentration not given with the values); actives 0.12% (n = 410,000); AID 624414; in the data active = activation above about 50%; inconclusive = about 30% to 50%; inactive = below about 30%; further: 0% is about no effect; the text of the record puts the active cut at 80%
Target sequence (Q9GZU1 whole entry, looked up): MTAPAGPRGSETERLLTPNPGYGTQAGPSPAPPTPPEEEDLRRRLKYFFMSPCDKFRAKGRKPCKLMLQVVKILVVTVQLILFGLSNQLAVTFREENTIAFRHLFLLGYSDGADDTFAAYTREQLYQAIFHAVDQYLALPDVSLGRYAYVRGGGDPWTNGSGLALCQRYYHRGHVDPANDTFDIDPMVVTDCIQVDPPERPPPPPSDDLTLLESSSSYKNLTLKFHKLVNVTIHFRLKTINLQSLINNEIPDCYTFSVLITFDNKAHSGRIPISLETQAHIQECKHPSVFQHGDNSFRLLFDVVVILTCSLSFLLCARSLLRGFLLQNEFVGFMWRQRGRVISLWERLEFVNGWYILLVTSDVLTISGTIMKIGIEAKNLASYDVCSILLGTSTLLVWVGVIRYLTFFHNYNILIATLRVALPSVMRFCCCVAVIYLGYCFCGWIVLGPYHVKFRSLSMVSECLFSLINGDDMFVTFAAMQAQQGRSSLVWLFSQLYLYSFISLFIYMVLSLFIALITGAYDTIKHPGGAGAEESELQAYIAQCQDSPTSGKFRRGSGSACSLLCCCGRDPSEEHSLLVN
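Calcium fluorescence on an FDSS kinetic reader gave the read-out. Tet-induced TRPML1-DL cells were plated overnight, dye-loaded (Ca8 with quencher, 45-90 min, room temperature, dark), then read 110 s after compound addition, and again 110 s after 4uM final 54-4 (EC80).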
PINK1 expr mod – PINK1 expression modulation | actives 0.2% (n = 410,000) | PINK1 immunofluorescence, high-content cytometry, 24 h | Potency, µM (series often up to 76.6 µM), for inactives: at the highest dose activation (PINK1 increase), usual class: activators; active = well fitted activation curve with a large enough effect; inconclusive = small, poorly fitted or top-dose-only effect; inactive = flat fitted curve, though single readings scatter; cell line not stated here;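 further: potency means the concentration at half of the fitted maximal effect; % of control where 0% means no effect; nearly all actives have a fitted effect of over 65% in size; a mitochondrial uncoupler was the plate control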
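Decision-based qHTS: stable cells, 24 h exposure to five compound concentrations, CCCP as control. Fixed cells stained for PINK1 plus nuclear, mitochondrial and cell markers, cytometer read.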
Numbers without * were called inactive; ? = inconclusive; nt = no result given; [ ] = another dose, or the depositor's remark.

smiles | D2 ag | D2 potentiator | CtBP-E1A blk | Six1-Eya2 blk | TRPML1 ag | PINK1 expr mod
C[C@H]1CN([C@@H](C)CO)S(=O)(=O)c2ccc(Br)cc2O[C@@H]1CN(C)C(=O)c1cccnc1 | -3.5 | -4 | -5 | 3 | -0.3 | 0.1%
CCN(CC)C(=O)c1cccc(-c2csc(C(O)(c3ccccc3)C(F)(F)F)n2)c1 (stereo not drawn) | ? | -11 | 4 | -1 | -0.4 | ?
CCOc1cc(/C=N/NC(=O)C(C)Sc2ccccn2)ccc1O (stereo not drawn) | -0.9 | -2 | ? | ? | 2.0 | 4.1%
C=CCc1cc(C=Nc2ccc(N3CCOCC3)cc2)cc(OCC)c1O | 0.6 | 0 | -12 | -10 | -0.4 | 0.7%
CC1=NN(C(N)=S)C(=O)C1N=Nc1c(C)n(C)n(-c2ccccc2)c1=O (stereo not drawn) | -13 | -16 | -8 | -22 | 0.2 | 1.3%
CN1CCOCCOCCN(C)C(=O)N2CCOCCOCCN(CCOCC2)C1=O | -0.2 | -12 | -11 | -1 | 0.1 | -4.6%[38.3 µM]
CCSc1nnc(NC(=O)CN2C(=O)NC3(CCCC3)C2=O)s1 | -5.8 | -2 | nt | 3 | 0.2 | -0.3%
Cc1ccn(CC(=O)N2CCCC(N3CCN(c4cccc(C(F)(F)F)c4)CC3)C2)n1 (stereo not drawn) | -1.2 | -24 | -7 | 0 | -0.3 | 0.6%
O=C(CCC(=O)N1CCOc2ccccc21)NCCN1CCOCC1 | -1.8 | -5 | 4 | 1 | 0.0 | -1.3%
O=C(Nc1cccc(-c2cccc(F)c2)c1)C1CCN(C2CCOCC2)CC1 | -0.6 | -10 | nt | -3 | 0.3 | 8.6%
CSCc1cc(N(C)c2ccccc2)nc(-c2ccccn2)n1 | -0.8 | 1 | nt | ? | 1.5 | 0.5%
Cc1cccc(N2CC(C(=O)Nc3nnc(SCc4ccccn4)s3)CC2=O)c1 (stereo not drawn) | 3.6 | 2 | -9 | -17 | -0.6 | -1.1%
Cc1cc(NC(=O)CSc2nnc(-c3cccnc3)n2C2CCCCC2C)no1 (stereo not drawn) | -1.8 | -1 | 9 | 4 | -0.3 | -1.6%
COc1ccc(-c2nnc(N(C)C(=O)c3ccco3)s2)cc1OC | -3.0 | -4 | -10 | -4 | 0.7 | 0.6%
CCCc1cc(=O)[nH]c(SCC(=O)NCCCC(=O)OCC)n1 | 1.6 | 1 | -4 | 4 | -0.3 | -0.8%
CC(=O)Nc1ccc(/C=C(\C#N)C(=O)NC2CCCCC2C)cc1 (stereo not drawn) | -3.8 | -2 | -11 | -6 | -0.1 | 1.9%
CCOC(=O)C1=C(C)NC(=O)NC1c1ccc(OCC(=O)OC)c(OC)c1 (stereo not drawn) | -1.6 | -5 | -13 | 8 | -0.3 | 2.6%
CC(=O)Nc1c2c(nn1-c1ccccc1C)CS(=O)C2 (stereo not drawn) | -2.0 | -3 | nt | 2 | 0.9 | -0.2%
CCCOc1ccc(-c2nc(N)n[nH]2)cc1 | -2.6 | -6 | 3 | 3 | 1.1 | 8.9%[38.3 µM]
C[C@H](CO)N1C[C@H](C)[C@@H](CN(C)Cc2ccccc2)Oc2c(NC(=O)c3ccncc3)cccc2C1=O | -6.9 | -5 | -2 | 7 | -0.2 | -0.8%
CCOP(=O)(c1ccccc1)C(O)c1ccccc1 (stereo not drawn) | 2.1 | -2 | 2 | 2 | -0.5 | 2.4%
O=S(=O)(O)C(c1ccccc1)C1(O)CCCCC1 (stereo not drawn) | -3.0 | -6 | 0 | 0 | 1.1 | -1.2%
CCCCCCC/C(C)=N/NC(=O)CC(=O)NCCc1ccccc1 | -2.9 | 13 | 11 | 7 | -0.3 | -1.2%
CN(C)c1ccc(CNC(=O)c2cc(S(=O)(=O)N3CCCC3)cn2C)cc1 | -4.0 | -2 | 1 | -8 | -0.3 | -0.8%
CCOc1cc(NC(=O)c2ccco2)c(OCC)cc1NC(=O)Cc1cccc(OC)c1 | -0.7 | 1 | -15 | -10 | 1.9 | 3.0%

Record cards, as listed above.
CCCCCCC/C(C)=N/NC(=O)CC(=O)NCCc1ccccc1 is listed as D2 ag: -2.9; D2 potentiator: 13; CtBP-E1A blk: 11; Six1-Eya2 blk: 7; TRPML1 ag: -0.3; PINK1 expr mod: -1.2%
CCOc1cc(NC(=O)c2ccco2)c(OCC)cc1NC(=O)Cc1cccc(OC)c1 is listed as D2 ag: -0.7; D2 potentiator: 1; CtBP-E1A blk: -15; Six1-Eya2 blk: -10; TRPML1 ag: 1.9; PINK1 expr mod: 3.0%

(further entries)
smiles | D2 ag | D2 potentiator | CtBP-E1A blk | Six1-Eya2 blk | TRPML1 ag | PINK1 expr mod
CCC(C)[C@H](NC(=O)C1CC(=O)N(c2ccc3c(c2)OCCO3)C1)C(=O)N1CCCCC1 (stereo partly drawn) | -2.1 | -7 | 1 | 1 | -0.9 | -0.7%
CCCNC(=O)N[C@@H](Cc1ccccc1)C(=O)OC | 0.3 | -3 | 9 | 6 | 0.3 | -5.2%[38.3 µM]
c1ccc(-n2nc3c(ccc4cnnc43)[nH]2)cc1 | 4.1 | -2 | -3 | 4 | 0.7 | 0.2%
CC(C)N1CCN(Cc2ccc3nsnc3c2)CC1CCO (stereo not drawn) | -2.9 | -12 | -2 | 12 | 0.0 | 2.8%
CSCCC(NS(=O)(=O)c1cccc(C(F)(F)F)c1)C(=O)N(C)Cc1ccc2c(c1)OCCO2 (stereo not drawn) | -3.6 | 0 | 0 | -1 | 1.4 | 2.0%
Cc1ccc(-c2nc(NC(=O)c3nn(C)cc3[N+](=O)[O-])sc2C)cc1 | 0.2 | 2 | -3 | 5 | 1.7 | -3.0%
COCCN1C(=O)C(=O)/C(=C(/O)c2ccc(C)cc2)C1c1ccccn1 (stereo not drawn) | 0.2 | -20 | -14 | -5 | -0.4 | -1.0%
CC1CN(C(=O)CCC(=O)NCc2ccc(Cl)cc2)c2ccccc2S1 (stereo not drawn) | -6.7 | -4 | -5 | 2 | -0.1 | 0.0%
COc1ccc(C(NC(=O)c2ccc(=O)[nH]c2)C(=O)Nc2ccc(C(C)C)cc2)cc1 (stereo not drawn) | 0.0 | -3 | 0 | -5 | 0.2 | -1.9%
COC(=O)c1sccc1NC(=S)N1CCN(c2ccccc2F)CC1 | 0.3 | -6 | -5 | 12 | 0.9 | 0.2%
CC(=O)N1CCc2cc(C(=O)CN3CCCCC3)ccc21 | -2.0 | -5 | 1 | 0 | 0.1 | 0.0%
COc1ccc(S(=O)(=O)N2CCOC2CNC(=O)C(=O)NCc2ccccc2Cl)cc1 (stereo not drawn) | -5.0 | -10 | 12 | -1 | 1.0 | -1.3%
COc1cc2cc(C)c(Br)c(OC)c2cc1OC | 4.1 | 4 | 0 | 4 | 4.6 | -2.5%
CCN(CC)c1ccc(NC(=O)CN2C(=O)NC3(CCc4ccccc43)C2=O)cc1 (stereo not drawn) | -1.9 | 3 | nt | -22 | -1.4 | 0.7%
COc1cc(C(=O)NCC(=O)Nc2ccc(F)c(F)c2)ccc1OCC(=O)N1CCOCC1 | 1.5 | -11 | 5 | -5 | 0.3 | -0.5%
O=C(Nc1cccc(Cl)c1)N1CCOCC1 | -1.9 | -6 | -2 | 9 | -0.2 | 2.9%
C[C@@H]1CCCCO[C@H](CN(C)Cc2ccc(C(=O)O)cc2)[C@H](C)CN([C@@H](C)CO)C(=O)c2cc(NC(=O)Nc3ccc(C(F)(F)F)cc3)ccc2O1 | -1.2 | 4 | 6 | 6 | -0.2 | 1.4%
COC(=O)c1cc(NC(=O)CSc2nc(C)cc(=O)[nH]2)cc(C(=O)OC)c1 | -2.6 | -5 | -9 | -6 | 5.3 | 0.6%[38.3 µM]
COc1nc(N2CCOCC2)nc(-n2cccc2)n1 | -0.1 | -1 | 7 | -4 | -0.6 | -1.0%[38.3 µM]
CCCN1C(=O)SC(CC(=O)Nc2cccc3ccccc23)C1=O (stereo not drawn) | -0.4 | -10 | 1 | -6 | -0.4 | 9.4%
CC(=O)Nc1ccc(S(=O)(=O)N(Cc2cccnc2)Cc2cc3ccc(C)cc3[nH]c2=O)cc1 | 0.9 | 5 | nt | -12 | -0.3 | 2.8%
O=C(COC(=O)CN1C(=O)NC2(CCCC2)C1=O)Nc1ccc(C(F)(F)F)cc1[N+](=O)[O-] | 5.6 | 5 | 0 | 8 | -0.5 | 3.9%
O=C(NC1CCCCC1)C(=O)c1c(-c2ccccc2)[nH]c2ccccc12 | -5.4 | -7 | -6 | -1 | -0.3 | 1.6%
COc1ccc(C(CNC(=O)c2ccc3c(c2)OCCO3)N(C)C)cc1 (stereo not drawn) | -0.8 | -15 | -6 | -2 | -0.3 | -0.1%
O=C(O)CCC(=O)N1CCN(c2nc(-c3ccccc3)c3cc(Br)ccc3n2)CC1 | -3.4 | 0 | -1 | -1 | -0.3 | 0.9%

The list goes on:
smiles | D2 ag | D2 potentiator | CtBP-E1A blk | Six1-Eya2 blk | TRPML1 ag | PINK1 expr mod
CCc1nc2ccc(C(=O)NCc3ccccc3OC)cn2c1N(C)Cc1ccc(OC)cc1 | 5.5 | -1 | -5 | -17 | -1.0 | ?
CCOc1ccc(NC(=O)Cn2nnc(C(=O)NCc3ccc4c(c3)OCO4)c2N)cc1 | 1.3 | -5 | 1 | 1 | 0.1 | 1.6%
COc1ccc(-c2nn(CC(=O)Nc3ccc(Cl)c(Cl)c3)c(=O)c3ccccc23)cc1 | -3.8 | -1 | 0 | 2 | 1.5 | -2.7%
C[C@H](CO)N1C[C@H](C)[C@@H](CN(C)C(=O)Nc2ccccc2)Oc2ccc(NC(=O)C3CCCCC3)cc2C1=O | -0.9 | 0 | -11 | -8 | 0.2 | 3.2%
COc1cc(/C=C/CNC[C@H]2O[C@@H](n3cnc4c(=O)[nH]c(N)nc43)[C@H](O)[C@@H]2O)ccc1O | 8.8 | 5 | 13 | 5 | -0.4 | 3.3%
CCn1ncc(/C=N/NC(=O)c2cc(Cl)ccc2OC)c1C | -3.7 | -21 | 8 | 4 | 0.6 | -0.2%
Fc1ccccc1-c1nc(-c2ccc(Cl)cc2)no1 | -2.4 | -5 | 11 | 9 | 0.4 | -0.9%[38.3 µM]
O=C(OCc1cccc([N+](=O)[O-])c1)c1cnccn1 | -4.8 | -6 | 5 | 7 | 0.0 | -0.2%
COc1ccc(OC)c(NC(=O)C2C3C=CC(C3)C2C(=O)NCc2cccnc2)c1 (stereo not drawn) | -0.5 | -7 | -3 | -8 | 0.4 | 0.3%
CC(C)NC(=O)COc1coc(CN2CCN(Cc3ccccc3)CC2)cc1=O | 0.8 | -2 | 5 | 1 | -0.7 | 1.3%

Part of the list above in order of length of the SMILES, low to high.
smiles | D2 ag | D2 potentiator | CtBP-E1A blk | Six1-Eya2 blk | TRPML1 ag | PINK1 expr mod
O=C(OCc1cccc([N+](=O)[O-])c1)c1cnccn1 | -4.8 | -6 | 5 | 7 | 0.0 | -0.2%
CCc1nc2ccc(C(=O)NCc3ccccc3OC)cn2c1N(C)Cc1ccc(OC)cc1 | 5.5 | -1 | -5 | -17 | -1.0 | ?
COc1cc(/C=C/CNC[C@H]2O[C@@H](n3cnc4c(=O)[nH]c(N)nc43)[C@H](O)[C@@H]2O)ccc1O | 8.8 | 5 | 13 | 5 | -0.4 | 3.3%
